Screens: PubChem, National Center for Advancing Translational Sciences (NCATS)
PK Bst: modulators of Bacillus stearothermophilus pyruvate kinase | partly purified Bacillus stearothermophilus pyruvate kinase, luminescence ATP production; ribose 5-phosphate activator present at AC10 | Potency, µM | 1.2% of 51,000 active; in the data active means potency below about 11 µM; inconclusive means mostly about 12 µM to 25 µM; inactive means weaker than that;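 the screen sought inhibitors and activators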;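 note: potency is the fitted concentration of half-maximal effect; scaled between full activation by ribose 5 phosphate and full inhibition by luteolin; about four in five hits inhibit and the cells do not say which; series up to 57 µM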
TsaE inh: inhibitors of E. coli YjeE (TsaE) | P0AF67 | purified YjeE, fluorescence polarisation of a bound ADP probe | Potency, µM | 0.05% of 71,000 active; active = well fitted falling curve; inconclusive = weaker or top-dose-only fall, or a rising curve; inactive = flat or poorly fitted curve;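 note: top concentration of the series not given in the record; excess ADP was the control for the full effect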
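Fluorescence polarization of a BODIPY Texas Red–ADP probe (2 uM) bound to purified YjeE (10 uM) was read after 15 min room-temperature incubation with compounds. Loss of polarization marks inhibitors; ADP serves as titrated control.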
The depositor's hits bear a star; i = inactive; ? = inconclusive; . = not tested or not shown.

SMILES | PK Bst | TsaE inh
COC(=O)CSc1nc(N2CCCCC2)c2c(c1C#N)CCCC2 | >57 | i
COc1ccccc1N1CCN(C(=O)c2cc(-c3ccc4c(c3)OCO4)on2)CC1 | >57 | i
O=C(Nc1ccc(C(=O)Nc2ccc(C(=O)Nc3ccc(S(=O)(=O)O)c4cc(S(=O)(=O)O)cc(S(=O)(=O)O)c34)cc2)cc1)Nc1ccc(C(=O)Nc2ccc(C(=O)Nc3ccc(S(=O)(=O)O)c4cc(S(=O)(=O)O)cc(S(=O)(=O)O)c34)cc2)cc1 | . | i
CCCCCCc1nc2c(=O)[nH]c3ccccc3c2o1 | >57 | i
CS(=O)(=O)Nc1ccc(C(=O)Nc2ccccc2C(=O)N2CCCC2)cc1 | >57 | i
COc1ccc(OC)c(NC(=O)C2CCN(S(=O)(=O)c3c(C)noc3C)CC2)c1 | >57 | i
COCCNC(=O)CSc1nc2cc(OC)c(OC)cc2c(=O)n1Cc1ccco1 | >57 | i
CCOC(=O)C(Cc1ccccc1)NS(=O)(=O)c1ccc(NC(C)=O)cc1 (centres undefined) | >57 | i
CCC(=O)N1CCc2cc(Br)cc(S(=O)(=O)NCCN3CCCCC3CC)c21 (centres undefined) | >57 | i
CCNc1nc(SCC(=O)OC)nc(N2CCOCC2)n1 | >57 | i
O=C(C1CCCN1S(=O)(=O)c1ccc(Cl)c(Cl)c1)N1CCCCC1 (centres undefined) | ? | i
CS(=O)(=O)N(CC(=O)NCCSCc1cccc(Cl)c1)c1ccc2c(c1)OCO2 | >57 | i
Cc1cc(C2C(C#N)=C(N)SC(N)=C2C#N)c(C)s1 | >57 | i
COc1ccc(S(=O)(=O)N(CC(=O)NCC2CCCO2)c2ccccc2)cc1OC (centres undefined) | >57 | i
COc1ccc(-c2nnc(NC(=O)c3ccc(S(=O)(=O)N4COCC4(C)C)cc3)o2)cc1 | >57 | i
CCCCOc1ccc(-c2nnc(-c3ccncc3)o2)cc1 | 5.6* | i
Cc1nn(C(=O)c2cccs2)c(C)c1CN1C(=O)c2ccccc2C1=O | >57 | i
Cc1nn(Cc2ccccc2)c(C)c1NC(=O)c1cc(-c2cccs2)on1 | >57 | i
Cc1cc(N2CCCCC2)n2nc(C)c(-c3ccccc3)c2n1 | >57 | i
c1ccc2c(c1)[nH]c1c(N3CCCC3)ncnc12 | i | i
Fc1ccc(Nc2ccnc(-c3ccc4c(c3)OCO4)n2)cc1 | . | i
CSc1nnc(-c2ccccc2)o1 | . | i
Cc1cccc(CN2CCN(C(=O)c3ccccc3F)CC2)c1 | >57 | i
COC(=O)CCC(=O)Nc1ccccc1C(N)=O | . | i
CCN1CCN(CC(O)COc2ccc(C(C)=O)cc2)CC1 (centres undefined) | . | i

Compound profiles, from the list above. Order of values: PK Bst | TsaE inh
Shown for c1ccc2c(c1)[nH]c1c(N3CCCC3)ncnc12 : i | i
Shown for O=C(C1CCCN1S(=O)(=O)c1ccc(Cl)c(Cl)c1)N1CCCCC1 (centres undefined) : ? | i
Shown for COC(=O)CCC(=O)Nc1ccccc1C(N)=O : . | i

Carrying on:
SMILES | PK Bst | TsaE inh
COc1cc(C2c3c(oc4ccccc4c3=O)C(=O)N2c2ccc(C)cn2)ccc1O (centres undefined) | . | i
COC(=O)c1ccc(NC(=O)C2CCCN2S(=O)(=O)c2ccc(OC)cc2)cc1 (centres undefined) | >57 | i
CCc1cc2ccccc2nc1SCC(=O)N1CCN(C(=O)c2ccco2)CC1 | >57 | i
O=c1[nH]nc(Sc2ncnc3sccc23)n1CCc1ccccc1 | >57 | i
Cc1c(=O)n(OCc2c(F)cccc2F)c2ccccc2[n+]1[O-] | >11 | .
CCCc1cc(=O)oc2cc(OCC(=O)Nc3cc(C)on3)ccc12 | >57 | i
CN1CCc2nc(SCCOc3ccccc3)c(C#N)cc2C1 | >57 | i
Fc1ccc(Br)cc1C1C=C(c2ccc(Br)s2)Nc2ncnn21 (centres undefined) | >57 | i
c1csc(-c2csc3nc(CN4CCOCC4)nc(NCc4ccc5c(c4)OCO5)c23)c1 | >57 | i
Cc1ccc(NC(=O)CS(=O)CC(=O)N(CC(=O)NC2CCCC2)c2cc(C)ccc2C)cc1 (centres undefined) | >57 | i
COc1cccc(-c2nc(C(N)=O)c3[nH]c(=O)n(-c4ccccc4)c3n2)c1OC | . | i
CC(C)(C)c1ccc(C(=O)CSc2ncn[nH]2)cc1 | i | i
O=c1c(-c2ccccc2)nc2cnc(Oc3ccccc3)nc2n1C1CC1 | . | i
O=C(c1ccco1)c1cn(CC(=O)N2CCCCC2)c2ccccc12 | >57 | i
C=CCNc1nnc(SCC(=O)N2CCCCC2)c2ccccc12 | . | i
O=C(c1cccs1)N(CC1CCCO1)c1nc(-c2ccccc2)cs1 (centres undefined) | >57 | i
Cn1nnc2cc(C(=O)NC(C)(C)C)ccc21 | >57 | i
CCOC(=O)CSc1nnc(-c2cccc(Br)c2)o1 | . | i
O=C(Cc1cccs1)NCc1ccccc1 | >57 | i
O=C(CN1C(=O)c2ccccc2S1(=O)=O)NC1CCCC1 | >57 | i
CCC(=O)Nc1ccc2nc(C)n(CC(=O)Nc3ccccc3)c(=O)c2c1 | >57 | i
O=C(c1ccncc1)N1CCC2(CC1)CN(C(c1ccccc1)c1ccccc1)C2 | . | i
COc1cc2c(C)nc(C)c(C#N)c2cc1OC | >57 | i
CCN(CC)c1ccc(NC(=O)CSc2nc3ccccc3c(=O)[nH]2)cc1 | >57 | i
O=C1SC(SCc2ccccc2)=N/C1=C\c1ccco1 | >57 | i
(list continues)
SMILES | PK Bst | TsaE inh
COc1ccc(N(C(=O)c2ccc(Br)o2)C2C=CS(=O)(=O)C2)cc1 (centres undefined) | >57 | i
CC(=O)Nc1ccc(S(=O)(=O)Nc2ccc(N3CCOCC3)cc2)cc1 | >57 | i
CCN=C1SC(C(N)=O)CC(=O)N1CC (centres undefined) | >57 | i
Cc1nnc(SCC(=O)Nc2nccs2)s1 | >57 | i
OC1(c2ccccc2F)CCN(Cc2nnc(-c3ccccc3)o2)CC1 | >57 | i
CCCn1nc(C(=O)OCC(=O)c2ccc3c(c2)NC(=O)CO3)c2ccccc2c1=O | >57 | i
Cc1ccc2nc(C3CCN(CC(=O)N4CCCCCC4)CC3)[nH]c2c1 | >57 | i
CN(c1ccccc1)S(=O)(=O)c1ccc(C(=O)OCC(=O)NCc2ccco2)cc1 | >57 | i
CCOc1cc(N2CCOCC2)c(OCC)cc1NC(=O)C(NC(=O)c1ccco1)C(C)C (centres undefined) | >57 | i
Cc1ccccc1-n1nc(C(=O)O)c(C)c(C#N)c1=O | >57 | i
COCCn1c(=O)c(C)nc2cnc(N(C)C)nc21 | . | i
Brc1c(CSc2nc3ccccc3o2)nc2ncccn12 | >57 | i
Cc1nc2cnc(N3CCOCC3)nc2n(C)c1=O | . | i
COc1ccc(C2CC(c3cccc(C)c3)n3ncnc3N2)cc1 (centres undefined) | . | i
CC(C)/C(=N/[N+](C)(C)C)c1ccccc1 | . | i
O=C(Nc1ccc(N2CCCCC2)c(C(=O)O)c1)c1ccco1 | >57 | i
Nc1scc(-c2ccncc2)c1Cl | i | i
Cc1ccc(S(=O)(=O)NC2=NCN(Cc3cccnc3)CN2)cc1 | >57 | i
Cc1c(C(=O)Nc2ccncc2)oc2c1C(=O)CC(C)(C)C2 | . | i
CC(=O)C1=C(O)C(=O)N(c2ccc(S(N)(=O)=O)cc2)C1c1ccccc1F (centres undefined) | >26 | .
Cc1ccc2[nH]c(=O)c(CN(CCCO)S(=O)(=O)c3cccc4nsnc34)cc2c1 | >57 | i
O=C(NCCN1CCOCC1)Nc1ccc(Cl)cc1 | >57 | i
O=C(COc1ccc(S(=O)(=O)N2CCCC2)cc1Cl)NCc1ccco1 | >57 | i
COCCNc1ncnc2ccc(-c3ccccc3CN(C)C)cc12 | . | i
O=C1c2ccccc2C(=O)N1CCCSc1ccccc1 | . | i

Reformatted comma-delimited: part of the list above
SMILES,PK Bst,TsaE inh
Cc1nc2cnc(N3CCOCC3)nc2n(C)c1=O,.,i
COCCNc1ncnc2ccc(-c3ccccc3CN(C)C)cc12,.,i

New compounds follow.
SMILES | PK Bst | TsaE inh
N#CC(C(=O)NC1CCCCC1)c1nc2ccccc2nc1N1CCCCC1 (centres undefined) | >57 | i
N#Cc1c(N)n(C2CCCCC2)c2nc3ccccc3nc12 | >57 | i
Cc1ccnc(N2CCN(C(=O)CSc3nc4ccccc4nc3N3CCCCC3)CC2)c1 | >57 | i
Cc1ccc(S(=O)(=O)N2CCCN(S(=O)(=O)C3CCS(=O)(=O)C3)CC2)cc1 (centres undefined) | >57 | i
C=CCn1c(Cc2cccs2)nnc1SCC(=O)c1ccc(F)cc1 | >57 | i
CCCC[C@@H]1C[C@H]1C(NC(=O)c1cccnc1)c1ccc(Cl)cc1 (some centres undefined) | . | i
CCOC(=O)N1CCC(NS(=O)(=O)c2ccc3c(c2)oc(=O)n3C)CC1 | >57 | i
COC(=O)c1cccc(CSc2nnc(-c3ccco3)n2-c2ccccc2)c1 | >57 | i
CCC1(C)Nc2ccccc2C(=O)N1O (centres undefined) | >57 | i
COc1ccc(OC)c(C2=Nn3c(nnc3-c3cc(OC)c(OC)c(OC)c3)SC2)c1 | >57 | i
N#Cc1c(/N=C/N2CCOCC2)sc2c1CCCCC2 | . | i
Cc1ccc(C)c2[nH]c(=O)c(CCNC(=O)c3ccc(S(=O)(=O)N(C)C)cc3)cc12 | . | i
CC(CCc1ccccc1)NC(=O)c1cccnc1 (centres undefined) | >57 | i
CCOC(=O)c1ccccc1NC(=O)CN(c1ccccc1OC)S(C)(=O)=O | . | i
CC1=C(C#N)C(NC(=O)c2ccco2)(C(F)(F)F)C(=O)N1 (centres undefined) | >57 | i
O=C(CN1CCC2(CC1)OCCO2)c1c[nH]c2ccccc12 | >57 | i
O=C(Nc1sc2c(c1C(=O)NC1CC1)CCCCCC2)c1ccco1 | >57 | i
NC(=NC(=O)c1ccccc1)C1=C(O)CCC1=O | . | i
Cc1nc(NCc2ccccc2)c2nc(-c3ccccc3)n(CCCN3CCCCC3C)c2n1 (centres undefined) | . | i
CC(O)CNc1nc2ccccc2n1-c1ncnc2sc3c(c12)CCC3 (centres undefined) | >57 | i
CCOc1ccc(S(=O)(=O)N(CC(=O)Nc2cc(C)on2)Cc2ccccc2Cl)cc1 | . | i
CCN(CCO)C(=O)CC(c1ccccc1)c1cc(Br)ccc1O (centres undefined) | >57 | i
O=P(CO)(Cc1ccccc1)Cc1ccccc1 | . | i
Cc1ccc(CN2C(=O)/C(=C3\SC(N4CCOCC4)=NC3=O)c3cc(Br)ccc32)cc1 | . | i
O=C(Cn1cnc2c(nnn2-c2ccccc2)c1=O)NCc1ccco1 | . | i
(listing goes on)
SMILES | PK Bst | TsaE inh
CCOC(=O)c1sc(-c2ccccc2)cc1NC(=O)CSc1nnnn1C | i | i
CSc1cccc(NC(=O)c2nnn(Cc3ccccc3)c2N)c1 | >57 | i
O=C(CSc1nc2c([nH]c3ccccc32)c(=O)n1-c1ccccc1)N1CCOCC1 | . | i
COc1ccc(-c2nc3cnc(N4CCOCC4)nc3n(C)c2=O)cc1 | . | i
Nc1nnnn1/N=C/c1cccs1 | >26 | .
COc1cccc(-c2cncnc2NCCc2cnc[nH]2)c1 | . | i
COc1ccccc1N1CCN(C(=O)c2ccc(N3CCCC3=O)cc2)CC1 | >57 | i
CCOC(=O)N1CCC(NS(=O)(=O)c2cc3c(cc2C)NC(=O)CO3)CC1 | >57 | i
CCn1c(-c2cccc(Br)c2)n[nH]c1=S | >57 | i
COc1ccc(F)cc1S(=O)(=O)NC1CCCCCC1 | >57 | i
COC(=O)c1cc(=O)nc2sccn12 | >57 | i
COCCn1c(=O)c(-c2ccc(F)cc2)nc2cnc(OCc3ccccc3)nc21 | . | i
CCOC(=O)c1[nH]c2ccc(OC)cc2c1NC(=O)N1CCOCC1 | >57 | i
COc1cccc(C2=NOC(C(=O)NCc3ccco3)C2)c1 (centres undefined) | >57 | i
O=C(Nc1ccc2c(c1)OCCO2)c1cncc(Br)c1 | i | i
O=C(C1CCN(S(=O)(=O)N2CCC3(CC2)OCCO3)CC1)N1CCc2ccccc2C1 | >57 | i
CCCC12CN3CC(C)(CN(C1)C31C(=O)Nc3ccc(C)cc31)C2=O (centres undefined) | >57 | i
COc1ccccc1C(=O)NCC(=O)Nc1ccccc1 | >57 | i
CN(c1ccc(C(=O)Nc2ccccc2C(=O)N2CCCC2)cc1)S(C)(=O)=O | >57 | i
c1ccc(-n2nnnc2SCCCSc2nc3ccccc3s2)cc1 | >57 | i
CC1(C)Cc2c(C#N)c(SCCOc3ccccc3)nc(N3CCOCC3)c2CO1 | >26 | .
O[Si@](CCCN1CCCCC1)(c1ccc(F)cc1)C1CCCCC1 | . | i
O=C(O)c1ccc(S(=O)(=O)Nc2ccc(F)c(Cl)c2)cc1 | i | i
CC(OC(=O)c1cc2sccc2n1C)C(=O)NCCc1ccccc1 (centres undefined) | >57 | i

PK Bst: hit marks shown above
SMILES | PK Bst | TsaE inh
CCCCOc1ccc(-c2nnc(-c3ccncc3)o2)cc1 | 5.6* | i

In the list so far, two have a tert-butyl group.
SMILES | PK Bst | TsaE inh
CC(C)(C)c1ccc(C(=O)CSc2ncn[nH]2)cc1 | i | i
Cn1nnc2cc(C(=O)NC(C)(C)C)ccc21 | >57 | i

An excerpt, so the mix of outcomes need not match the whole.
